Compound activity as filed in PubChem BioAssay.
ClpP mod = qHTS Assay for Activators of ClpP. Potency, µM (series often up to 57.5 µM), inactives show top-dose activity change, negative = active. 340,000 compounds, 1.9% hits. ATP-dependent Clp protease proteolytic subunit (Bacillus subtilis (strain 168)), P80244. purified B. subtilis ClpP, FRET peptide cleavage, 20 min; active = well fitted falling curve with a large enough effect; inconclusive = small, poorly fitted or top-dose-only effect; inactive = no such curve, though single readings can be large or run the other way; note: potency is the fitted concentration of half-maximal effect; the source files actives as falling curves though it sought activators and does not explain the sign; nearly all actives have a fitted effect of over 65% in size; many hits overshoot -100%
Target sequence (P80244 whole entry, looked up): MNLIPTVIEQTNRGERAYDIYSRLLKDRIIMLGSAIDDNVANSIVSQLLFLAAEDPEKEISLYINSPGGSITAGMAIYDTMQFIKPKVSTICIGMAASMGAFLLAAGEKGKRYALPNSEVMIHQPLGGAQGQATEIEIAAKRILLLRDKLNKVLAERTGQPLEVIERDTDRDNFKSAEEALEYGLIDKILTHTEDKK
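Purified B. subtilis ClpP, 10 microg/mL final in Tris/HCl pH8 with KCl, BSA, glycerol and Tween-20, cleaved an Abz/nitrotyrosine-quenched decapeptide. Fluorescence (ex 320, em 430) was read at 0 and 20 min at room temperature. Delta was normalized to 5.8 microM ADEP and DMSO/no-enzyme controls.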
Sfp inh = inhibitors of Bacillus subtilis Sfp phosphopantetheinyl transferase; AID 1490; Potency, µM, for inactives: max response, negative = inhibition, usual class: inhibitors; 310,000 compounds, 3.5% hits; Biochemical Sfp PPTase activity, qHTS; Q9F4F7; active = well fitted inhibition curve with a large enough effect; inconclusive = small, poorly fitted or top-dose-only effect, or another doubt; inactive = no such curve, though single readings can be large or run the other way;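 note: the enzyme is Sfp with the accession as filed and its product quenches rhodamine fluorescence; potency is the fitted concentration of half-maximal effect; 0% = enzyme reaction without inhibitor and -100% = no enzyme wells; top concentration of the series not given in the record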
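With Hepes-Na pH 7.6 buffer containing 10 mM MgCl2, Sfp (15 nM) modified BHQ-2-YbbR (12.5 uM) using rhodamine-CoA (5 uM). Two reads 30 minutes apart at 525/598 nm yielded each well's rate.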
PINK1 modulator = modulators of PINK1 expression. PINK1 immunofluorescence, high-content cytometry, 24 h. 410,000 compounds, 0.2% hits. Potency, µM (highest dose often 76.6 µM), inactives show at the highest dose activation (PINK1 increase), actives largely listed as activators; active = well fitted activation curve with a large enough effect; inconclusive = small, poorly fitted or top-dose-only effect; inactive = flat fitted curve, though single readings scatter; cell line not stated here;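 note: potency is the fitted concentration of half-maximal effect; % of control where 0% means no effect; nearly all actives have a fitted effect of over 65% in size; a mitochondrial uncoupler was the plate control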
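Readout is PINK1 immunofluorescence, quantified alongside mitochondrial, cell and nuclear markers by laser-scanning microplate cytometry. Cells from a stable line were exposed to compound titrations (5 concentrations) for 24 hours, with CCCP controls.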
Menin-MLL FL inh = displaces fluorescein MLL peptide from human menin; Fluorescence polarization, fluorescein-MLL peptide displacement from menin; FP activity change, % at 61.4 µM; 290,000 tested, under 10 active; AID 1766; inconclusive = falling polarisation curve, or a change in total fluorescence; inactive = total fluorescence flat and polarisation flat or rising; no compound was filed as active; the % refers to the polarisation; negative = inhibition;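 note: % of control where 0% means no effect; inhibitors lower the polarisation; unlabelled MLL peptide was the positive control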
gsp antag = antagonizes gsp, the McCune-Albright syndrome mutation; gsp-mutant cells, cAMP HTRF, 30 min; control for the full effect not named in the record; 340,000 compounds, 0.4% hits; Potency, µM (doses to about 76.9 µM), for the others: at the top dose activity change, negative = inhibition, hits mostly inhibitors; AID 624288; active = falling curve of any shape with a large fitted effect; inconclusive = falling curve, mostly with a smaller effect; inactive = flat or rising curve; cell line not stated here;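 note: intracellular cAMP measured with PDE inhibitor Ro 20-1724 present during compound exposure; potency is the fitted concentration of half-maximal effect; % is set by controls: 0 for no effect and ±100 for the full control effect; nearly all actives have a fitted effect of over 65% in size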
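Measurement of cellular cAMP by homogeneous time-resolved fluorescence following a 30 min compound exposure at 37C. The PDE inhibitor […] was present throughout; the assay buffer was DPBS with 0.05% BSA and 0.005% Tween 20.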
gsp ag = gsp mutant agonism; gsp mutant cells, cAMP HTRF, 30 min; control for the full effect not named in the record; Potency, µM (titrated, usually from 76.9 µM), inactives show at the highest dose activation (cAMP increase), hits mostly activators; 340,000 compounds, 0.13% hits; AID 624287; active = well fitted activation curve with a large enough effect; inconclusive = small, poorly fitted or top-dose-only effect, or another doubt; inactive = no such curve, though single readings can be large or run the other way; cell line not stated here;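 note: phosphodiesterase inhibitor Ro 20-1724 added with compounds to block cAMP breakdown; potency is the fitted concentration of half-maximal effect; nearly all actives have a fitted effect of over 60% in size; about a fifth of the inactives were tested at one dose only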
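Cells in DMEM/10% FBS with G418 were pretreated with compounds in DMSO plus […] (300 uM stock) for 30 min at 37C. cAMP was measured by HTRF (cAMP-d2 plus anti-cAMP antibody-K) after 30 min at room temperature.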
D2 ag = human D2 receptor agonism in beta-arrestin assay | P14416 | DiscoveRx PathHunter D2 beta-arrestin, luminescence, 90 min; 100% = 57 uM dopamine signal | activation, % (test concentration not listed) | 360,000 compounds, 0.084% hits | AID 624465; in the data active = activation above about 40%; inconclusive = about 15% to 40%; inactive = below about 15%; note: compound concentration not given in the record; the text of the record calls up to 30% inactive
Target sequence (P14416 whole entry, looked up): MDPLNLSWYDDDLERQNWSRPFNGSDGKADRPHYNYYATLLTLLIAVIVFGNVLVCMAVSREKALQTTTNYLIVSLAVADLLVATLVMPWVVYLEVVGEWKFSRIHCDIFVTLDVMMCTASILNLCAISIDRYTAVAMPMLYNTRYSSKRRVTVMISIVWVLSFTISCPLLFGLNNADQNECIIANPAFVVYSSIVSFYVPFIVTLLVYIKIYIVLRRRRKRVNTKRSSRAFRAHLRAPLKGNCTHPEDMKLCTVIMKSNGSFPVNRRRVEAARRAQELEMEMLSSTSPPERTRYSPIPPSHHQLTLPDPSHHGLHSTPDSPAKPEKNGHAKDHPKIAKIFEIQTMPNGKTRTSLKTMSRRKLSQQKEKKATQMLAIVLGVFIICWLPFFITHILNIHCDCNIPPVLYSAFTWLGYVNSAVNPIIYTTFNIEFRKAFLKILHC
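Agonist mode: compounds alone added to overnight-plated D2 PathHunter cells for 90 min at 37 C, with 57 uM final dopamine (EC100) defining full response. Beta-arrestin recruitment detected by chemiluminescent reagent, read after 1 h at ambient temperature.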
Active calls of the source: *; ? = inconclusive; . = not tested or not shown; [ ] = dose if it differs, or a comment.

SMILES	ClpP mod	Sfp inh	PINK1 modulator	Menin-MLL FL inh	gsp antag	gsp ag	D2 ag
CCCNC(=O)CN(c1ccc(F)cc1)S(=O)(=O)c1ccc2c(c1)OCCO2	1.0%	7.1%	.	-1.0	-10.2%	-30.3%[inhibitor]	0.9
COc1cc(/C=N/NC(=O)c2ccccn2)ccc1OC(=O)c1ccccc1Br	-9.6%	-3.1%	-1.4%	-1.4	?	-16.2%[15.4 µM]	-0.5
Cc1sc2ncnc(SCC(=O)N(C(C)C)C(C)C)c2c1C	-0.4%	-7.1%	-0.7%	-5.0	11.0%	-10.5%[15.4 µM]	-2.3
CC(=O)N(C)c1ccc(NS(=O)(=O)c2cc(Cl)ccc2Cl)cc1	.	22.6%	1.4%	-7.7	-7.4%	32.7%	0.9
COc1ccccc1NC(=O)CNC(=O)c1ccccc1	0.6%	19.7%	0.1%	3.4	7.7%	-24.1%	-2.0
CCSc1nnc(-c2ccc(OC)cc2)o1	-3.5%	12.2%	0.7%	-0.7	4.0%	-6.1%	-0.4
COc1ccc(OC)c(S(=O)(=O)N2CCN(c3ccc(F)cc3)CC2)c1	-3.6%	-34.9%	-0.3%	2.4	3.3%	-1.9%	-1.3
CC(=O)c1ccc(Nc2ccc(-c3ccccc3F)nn2)cc1	.	-0.5%	0.5%	2.0	-4.5%	-27.6%	4.9
COC(=O)c1ccc(COc2ccc(C=O)cc2OC)o1	.	10.7%	1.2%	-0.5	-10.7%	-2.6%[15.4 µM]	1.5
CCc1nc2c(OCc3ccc(OC)cc3)cccn2c1N(C)C(=O)c1ccncc1	0.2%	.	-0.5%	.	.	.	-2.2
COc1ccc(C(=O)OCC(=O)c2ccco2)cc1[N+](=O)[O-]	-3.9%	.	0.3%	.	.	1.4%	-1.3
O=S(=O)([O-])CCC[N+]1(CC#Cc2ccccc2)CCCCC1	1.7%	29.8%	-0.9%	1.3	-0.3%	20.5%	4.0
CCn1c(COc2cccc(C)c2)nnc1SCC(=O)Nc1cccc(C(=O)OC)c1	-1.8%	1.4%	1.3%	1.4	28.2µM*	-2.3%	-1.8
O=[N+]([O-])c1ccc(/C=C2\CCC(C3=CCCC3)=C2N2CCOCC2)cc1	-1.6%	?	7.4%	.	-0.8%	?	9.4
C=CC[C@@H](Cc1ccc(F)cc1)C(=O)OC[C@H]1CCCN1C(=O)[C@H](CC=C)CC(=O)N(CCO)Cc1ccccc1	1.5%	.	1.8%	.	-19.0%	.	0.2
COc1cc(OC)c(S(=O)(=O)Nc2ccc(C(=O)O)cc2)cc1S(=O)(=O)Nc1ccc(C(=O)O)cc1	.	16.3%	-1.2%	0.3	7.4%	-35.2%[inhibitor]	-2.6
O=C(c1ccc([N+](=O)[O-])cc1[N+](=O)[O-])N1CCCC1	-1.1%	6.2%	0.5%	4.1	8.1%	-34.4%[inhibitor]	6.1
CC(C)COCc1ccc(O)c2ncccc12	.	18.8%	14.4%	1.8	0.1%	4.4%	-3.0
CCCOC(=O)c1c(NC(=O)CCCn2nc([N+](=O)[O-])c(Cl)c2C)sc(C(=O)OC)c1C	0.4%	3.1%	2.1%	-1.2	-10.9%	-5.6%[15.4 µM]	-4.9
CC(=O)Nc1ccc(S(=O)(=O)NCCC(=O)Nc2ccc(C)c(Cl)c2)cc1	-2.3%	17.8%	-1.8%	0.0	1.7%	-25.0%	2.4
CN(C)S(=O)(=O)c1ccc(Cl)c(C(=O)Nc2ccc(S(=O)(=O)N3CCOCC3)cc2)c1	.	-10.7%	3.2%	8.8	-4.4%	-2.4%	5.9
CSc1nc2c(c(=O)n1-c1ccc(C)cc1)SCC2	0.9%	-3.5%	-0.5%	0.7	-17.5%	-4.2%	-2.4
O=C1Nc2ccc3c(c2C1=Cc1cc2c(cc1Br)OCO2)OCO3	-1.9%	.	3.8%	.	6.1%	-24.5%	6.0
COc1ccccc1NC(=O)Cn1cnc2sc(C(=O)Nc3ccc(OC)c(OC)c3)c(C)c2c1=O	0.9%	-19.7%	10.1%	.	5.9%	5.0%	-4.3
O=C(COc1ccc(F)cc1Br)N1CCN(c2ncccn2)CC1	.	6.4%	1.6%	-1.8	-7.6%	-6.5%	0.7
CCC(=O)Nc1ccc(C(=O)CSc2nc3ccccc3[nH]2)cc1	.	1.3%	4.9%	2.6	-3.3%	-0.7%[15.4 µM]	-0.6
CC1CCCC(NC(=O)C2COc3ccccc3O2)C1C (stereo unspecified)	-12.1%	.	3.2%	.	2.5%	10.6%	-1.4
CN(C(=O)COc1ccccc1)c1nc(-c2ccc(F)cc2)cs1	0.3%	10.7%	4.6%	0.2	10.7%	3.0%	-1.7
Cc1occc1C(=O)N/N=C/c1cccs1	-1.3%	16.1%	.	4.4	1.4%	8.5%	-0.2
Cc1cccc2cc(CN(Cc3nnnn3Cc3ccccc3)C3CCCC3)c(=O)[nH]c12	5.6%	4.4%	.	-2.3	-21.9%	-23.7%	0.2
C=CCSc1nc2c(cc1C#N)CCC2	-6.6%	-4.6%	?	1.0	6.9%	-32.2%[inhibitor]	0.4
COc1ccc(C2CC23N=C(c2ccccc2)OC3=O)cc1 (stereo unspecified)	10.4%	3.7%	2.3%	2.6	15.4%	3.5%	-0.5
Cc1ccc(N2C(=O)N(CC(=O)Nc3cc(Cl)ccc3C)C(=O)C2C)cc1 (stereo unspecified)	-0.7%	.	0.6%	.	5.1%	-16.0%	-7.5
CCN(CC)C(=O)c1ccc(N)cc1	-2.3%	13.9%	-0.2%	0.0	7.7%	-17.3%	1.9
CCC1CCc2sc(C(=O)OCC(=O)N(CCOC)c3c(N)n(Cc4ccccc4)c(=O)[nH]c3=O)cc2C1 (stereo unspecified)	0.8%	.	0.7%	.	-10.3%	-18.7%	-2.3
Cn1cc(Cl)c(C(=O)OCC(=O)Nc2ccccc2)n1	-2.9%	6.0%	-1.7%	3.7	0.3%	-7.7%	-5.2
O=C(Nc1nnc(C2CCCO2)s1)c1ccc(Br)cc1 (stereo unspecified)	-2.2%	18.4%	-12.4%[38.3 µM]	-0.1	9.0%	-1.0%	-0.4
Nc1c2c(nc3ccccc13)N(c1ccccc1)CC2	15.8µM*	-101.2%	2.3%	3.0	?	4.5%	-1.4
CC(=O)Oc1ccc(/C=c2\sc3ncnn3c2=O)cc1	0.6%	7.0%	11.4%	0.9	8.2%	8.8%	-5.1
CN(CC(=O)Nc1ccc(Cl)c(C(F)(F)F)c1)C(=O)c1cnccn1	-0.1%	.	1.2%	.	6.1%	-13.1%[15.4 µM]	-4.9
COc1ccc2cc(OC)c(C(=O)N3CCOCC3)cc2c1	.	21.1%	1.8%	-0.7	-2.6%	-4.1%[15.4 µM]	2.8
Cc1c(O)ccc2c(CN3CCN(C/C=C/c4ccccc4)CC3)cc(=O)oc12	.	-4.8%	4.6%	0.0	-9.3%	-17.4%[15.4 µM]	1.7
Cc1ccc(NS(=O)(=O)c2ccccc2F)cc1S(=O)(=O)N1CCCCCC1	1.1%	.	1.9%	.	-8.9%	-22.4%	-0.8
CCCn1c(N)c(N2CCCCC2)c(=O)n(CC(=O)Nc2ccccc2)c1=O	0.3%	33.0%[activator]	0.9%	-0.1	-8.3%	6.7%	1.0
CCc1cccc(CC)c1NC(=O)CSc1nc2ccc(N3C(=O)C4C(C3=O)[C@H]3C=C[C@@H]4C3)cc2s1 (stereo partly specified)	-0.5%	-4.9%	-0.2%	3.1	-9.2%	-2.1%[15.4 µM]	-1.4
Cn1c(SCC(=O)Nc2nc3ccccc3s2)nnc1-c1ccccc1	-3.5%	5.2%	0.2%	1.0	4.8%	-45.6%[inhibitor]	-4.4
O=C(Nc1ccc(Br)cc1)c1ccc(F)c(S(=O)(=O)N2CCN(c3ccccn3)CC2)c1	.	17.2%	6.1%	1.0	?	20.3%	6.5
CCCCCNC(=O)Cn1c(=O)c2c(ncn2CC(C)C)n(Cc2ccccc2)c1=O	.	12.6%	2.5%	1.2	-11.3%	-6.5%	-3.4
COc1cccc(CNC(=O)c2cc3c(C)nc4ccccc4c3o2)c1	-16.2%	13.2%	1.4%	4.4	-22.2%	41.9%	3.5
CC(=O)Nc1ccc(S(=O)(=O)NNC2=NS(=O)(=O)c3ccccc32)cc1	.	-24.7%	2.8%	-4.5	6.7%	-2.0%	0.4
CC1(C(=O)Nc2cccc3cccnc23)CCN1C(=O)CC1CC1 (stereo unspecified)	-11.7%	.	-0.8%	.	.	.	-3.7
C=CCn1cnc2c(nnn2-c2cc(C)cc(C)c2)c1=O	?	17.7%	0.3%	-0.1	-11.8%	2.0%[15.4 µM]	0.0
Cc1c(C(=O)C(=O)N2c3ccccc3CC2C)c2ccccc2n1C (stereo unspecified)	.	1.2%	2.8%	0.7	-2.8%	-0.4%[15.4 µM]	1.2
C[C@H]1COC(=O)[C@@H](Cc2ccc(F)cc2)CC/C=C/C[C@@H](CC(=O)N(CCO)Cc2ccccc2)C(=O)N1	-2.5%	.	-0.7%	.	-7.7%	-8.5%	-7.0
Cc1cccc(NC(=O)c2ccc3c(c2)OCCO3)c1C	.	17.6%	0.7%	1.5	2.3%	-0.3%	-1.3
CCOC(=O)c1c(C)[nH]c(C)c1S(=O)(=O)Nc1ccc(CN2CCCCC2)cc1	1.6%	18.3%	-1.7%	-0.2	3.4%	?	-1.9
c1ccc(Nc2nc(N3CCOCC3)nc(N3CCOCC3)n2)cc1	-1.0%	-14.4%	4.1%	-4.2	6.9%	-26.2%	-2.4
C=CCn1nnnc1-c1cccc(Cl)c1	.	5.5%	2.2%	-1.3	-11.7%	-30.5%[15.4 µM]	-1.2
Cc1cc(NC(C)C)n2c(nc3ccccc32)c1C#N	-1.6%	4.2%	0.1%	4.8	-1.5%	9.1%[15.4 µM]	2.5
Cc1ccc(NC(=O)CCS(=O)(=O)c2ccccc2)cc1S(=O)(=O)N1CCOCC1	.	10.5%	0.4%	1.3	-1.6%	8.6%[15.4 µM]	-6.0
CSc1ccc(Cn2c(C)c(C(=O)NCc3ccc4c(c3)OCCO4)sc2=O)cc1	-1.4%	.	1.0%	.	.	.	3.4
